# AmpC inh no det: AmpC beta-lactamase inhibition, detergent-free assay. AmpC nitrocefin hydrolysis, absorbance 480 nm, no detergent; potencies from a single point are estimates. AID 585. P00811. hit rate 1.8% among 71,000. Potency, µM (doses to about 28.7 µM), inactives show at the highest dose activity change, negative = inhibition; active = falling curve, for most hits resting on a single point; inconclusive = weak or doubtful change; inactive = flat or rising curve; further: % of control where 0% means no effect; about half of the hits show no inhibition at the top dose; a quarter of the inactives give rising signals
# Target sequence (P00811 whole entry, looked up): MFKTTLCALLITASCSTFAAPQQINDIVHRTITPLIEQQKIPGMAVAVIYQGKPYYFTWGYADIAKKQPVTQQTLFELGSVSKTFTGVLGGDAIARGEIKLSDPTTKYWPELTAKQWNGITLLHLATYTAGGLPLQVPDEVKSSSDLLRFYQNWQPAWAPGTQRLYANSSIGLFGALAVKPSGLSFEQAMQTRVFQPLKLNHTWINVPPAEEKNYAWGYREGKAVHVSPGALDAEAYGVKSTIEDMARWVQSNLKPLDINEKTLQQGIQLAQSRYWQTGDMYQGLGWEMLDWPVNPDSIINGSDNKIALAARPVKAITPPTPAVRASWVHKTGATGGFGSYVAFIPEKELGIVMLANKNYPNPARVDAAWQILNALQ
#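 Enzyme, pH 7.0 phosphate. Compound titrations were pre-incubated with AmpC for 15 min at room temperature before nitrocefin (stock 800 uM) addition; product formation was recorded at 480 nm every 20 s for 4 min.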
# Numbers without * were called inactive; & = joins results of further samples; [ ] = another dose, or the depositor's remark. Potency means the concentration at half of the fitted maximal effect.
SMILES,AmpC inh no det
COc1ccccc1N1CCN(C(=O)Cn2nnc(-c3ccncc3)n2)CC1,25.8%
Cc1noc(C)c1-c1nccc(Nc2ccc(F)cc2)n1,-12.7%
COc1ccccc1N1CCN(c2nc(C)nc3c2oc2ccccc23)CC1,84.0%
CCS(=O)(=O)N1CCCC(C(=O)NCc2ccccc2Cl)C1 (centres undefined),-3.9%
CN(C)S(=O)(=O)c1ccc(-c2ccccc2)cc1,-3.9%
Cc1c(NS(=O)(=O)c2ccc3c(c2)n(C)c(=O)n3C)c(=O)n(-c2ccccc2)n1C,0.2%
CCOC(=O)N1CCN(c2nc(=S)n(-c3ccccc3)c(C)c2C(C)=O)CC1,25.8%
O=C1c2ccccc2S(=O)(=O)N1CCCCN1CCN(c2ncccn2)CC1,47.6%
NC(=O)COc1ccc(C2c3c(oc4ccccc4c3=O)C(=O)N2CC2CCCO2)cc1 (centres undefined),31.2%
CCCOC(=O)Cc1n[nH]c(=O)[nH]c1=O,-12.0%
COc1cc2cc(C(=O)O)n(C)c2c(OC)c1OC,-5.3%
COc1ccc(-c2cc(C(=O)N3CC4(C)CC3CC(C)(C)C4)no2)cc1 (centres undefined),55.2%
O=C(CSc1ncnc2sc3c(c12)CCCC3)N1CCC(c2noc3ccc(F)cc23)CC1,3.5%
CCOC(=O)c1cccc(NC(=O)CSc2nnc(-c3cccnc3)n2CC)c1,27.8%
Nc1ccc(S(=O)(=O)c2cccc(N)c2)cc1,-14.2%
COCCNCC(=O)C12CC3CC(CC(C3)C1)C2,-10.7%
O=C(C1COc2ccccc2O1)N1CCN(c2ccccc2F)CC1 (centres undefined),21.8%
Cc1c(Br)c(=O)[nH]c(=O)n1COCc1ccccc1,-19.8%
COC(=O)c1[nH]c2cccc(C)c2c1NC(=O)CN1CCCc2ccccc21,127.2%
CCOc1ccc(NC(=O)CN2C(=O)COc3ccc(Cl)cc32)cc1,3.98µM*[single pt active]
COc1ccc2nc3oc(C(=O)N4CCC(C(N)=O)CC4)cc3cc2c1,18.4%
Nc1ccc(C(=O)OCc2nc3ccccc3[nH]2)cc1,-14.5%
COc1cccc(Cn2c(=O)c(-c3cccc(C#N)c3)nc3cnc(OC)nc32)c1,2.8%
Clc1ccc(-c2nn3c(-c4ccncc4)nnc3s2)c(Cl)c1,-18.8%
Cn1c(=O)cc(OCCCC(=O)N2CCN(Cc3ccc4c(c3)OCO4)CC2)c2ccccc21,155.6%
Cc1ccc(-n2nnnc2SCC(=O)c2cc(C)n(-c3cc(C)on3)c2C)cc1,24.6%
CC(C)CNc1nc(Oc2ccc(=O)n(C)n2)nc(N2CCOCC2)n1,12.9%
COc1cc(C(=S)N2CCCC2)ccc1O,0.1%
COc1ccccc1-c1cc(N)n(S(=O)(=O)c2ccc(F)c(C)c2)n1,20µM*[single pt active]
CCOC(=O)N1CCN(S(=O)(=O)c2ccc(OCC)c(C)c2)CC1,62.9%
COc1ccccc1/C=N/n1cnnc1,-4.9%
CC1=C(C(=O)OCc2ccccc2)C(C2CCCCC2)NC(=O)N1CCCCCC(=O)O (centres undefined),24.3%
O=S(=O)(c1ccccc1)N(Cc1nc(-c2ccccc2)no1)C1CCCCC1,-5.9%
Cc1ccc(Cn2nnc3c(=O)[nH]c(C(=O)NCc4ccco4)nc32)cc1,-8.2%
CC(=O)Nc1cccc(OC(=O)N2CCOCC2)c1,-8.5%
c1ccc(CSCc2ccccc2)cc1,-11.2%
CC1(C)C(c2ccccn2)=[N+]([O-])C(C)(C)N1O,-7.7%
CCOc1ccc(-n2c(O)c(C=Nc3ccc(N4CCOCC4)cc3)c(=O)[nH]c2=O)cc1,10.0%
O=C(CCN1CCCCC1c1cccnc1)NCc1ccccc1 (centres undefined),21.8%
CCn1cc(C(=O)NCc2ccco2)c(=O)c2cc(S(=O)(=O)N3CCc4ccccc4C3)ccc21,88.3%
CC(=O)Nc1ccc2nc(C3CCCCC3)[nH]c2c1,-5.6%
COc1ccc2nc(N3CCCC(C(=O)NCCCN4CCN(C)CC4)C3)sc2c1 (centres undefined),36.5%
C=CCn1c(SCc2ccc(OC)cc2)nnc1-c1cccnc1,24.1%
Cc1cc(NC(=O)CCC(=O)N(CCC(C)C)CC(=O)NCC2CCCO2)no1 (centres undefined),-0.7%
O=C(Oc1ccccc1)c1ccc(-n2cnnn2)cc1,-8.5%
CCCc1cc(=O)[nH]c(SCC(=O)Nc2cc3c(cc2C(C)=O)OCO3)n1,0.1%
CCCCCNC(=O)C(C#N)c1nc2ccccc2nc1N1CCCC1 (centres undefined),-0.7%
O=C(Cn1c(NCCO)nc2ccccc21)c1cccs1,-15.0%
O=C(CSc1nc(C2CC2)nc2sc3c(c12)CCCC3)NCc1ccco1,-13.0%
O=C(O)c1ccc(C(=O)O)c(C(=O)O)c1.[NH-][C@@H]1CCCC[C@@H]1[NH-].[Pt],4.8%[5.75 µM]

# (continued)
SMILES,AmpC inh no det
Nc1c(C(=O)NCCN2CCOCC2)c2nc3ccccc3nc2n1-c1ccccc1,54.4%
O=S(=O)(NCCc1ccccc1)c1ccc(S(=O)(=O)N2CCCCC2)cc1,-15.0%
COc1ccccc1NC(=O)C(Cc1ccc(Cl)cc1)c1nn[nH]n1 (centres undefined),-23.0%
COc1ccc(OC)c(C(C)NC=O)c1 (centres undefined),-2.2%
COc1ccc(S(=O)(=O)N2CCCC(C(=O)N3CCN(C)CC3)C2)cc1C (centres undefined),40.0%
COCCn1c(=O)c(-c2ccc(Cl)cc2)nc2cnc(Nc3ccccc3)nc21,6.7%
Cc1nnc(SCC(=O)Nc2ccc(Oc3ccccc3)cc2)n1N,37.3%
CN1CCN(CC(=O)n2c3c(c4ccccc42)CCCC3)CC1,44.6%
O=C(Nc1ccccc1C(F)(F)F)c1cc(-c2ccccc2O)on1,0.4%
O=C(NCc1cccnc1)c1cc(S(=O)(=O)N2CCCCC2)ccc1Cl,1.9%
COc1ccccc1CNc1ncnc2nc[nH]c12,12.0%
O=C(NCCc1ccncc1)Nc1ccccc1Cl,-0.6%
O=C1Nc2ccc(NS(=O)(=O)c3cccs3)c3cccc1c23,-11.3%
CCOc1nc(C)ccc1-c1noc(C)n1,-1.5%
CC1CCN(c2nc3ccccc3nc2C(C#N)C(=O)NC2CCCCC2)CC1 (centres undefined),5.6%
CCc1cc(C(=O)Cc2ccc(F)cc2)c(O)cc1O,3.2%
COc1ccc(-c2nnc(SC)n2C)cc1,1.5%
COc1cc(C2NC(=O)NC(O)(C(F)(F)F)C2C(C)=O)cc(OC)c1OC (centres undefined),-1.0%
CCC(=O)NC1=C(C#N)C2(CCCC2)Cc2ccccc21,14.1%
COc1ccc(C2=NCC(=O)N(CC(=O)NCc3ccco3)c3sc4c(c32)CCCC4)cc1OC,132.5%

# An excerpt of the results above:
SMILES,AmpC inh no det
COc1ccccc1CNc1ncnc2nc[nH]c12,12.0%
O=C(NCCc1ccncc1)Nc1ccccc1Cl,-0.6%
O=C1Nc2ccc(NS(=O)(=O)c3cccs3)c3cccc1c23,-11.3%
CCOc1nc(C)ccc1-c1noc(C)n1,-1.5%
CC1CCN(c2nc3ccccc3nc2C(C#N)C(=O)NC2CCCCC2)CC1 (centres undefined),5.6%
CCc1cc(C(=O)Cc2ccc(F)cc2)c(O)cc1O,3.2%

# The results go on:
SMILES,AmpC inh no det
Cc1nc2ncnn2c(N2CCC(C(=O)NC3CCCC3)CC2)c1Cc1ccccc1,91.8%
Cn1nc(C(=O)N2CCOCC2)c2ccccc2c1=O,-11.0%
CCOC(=O)CSc1nnc(Cn2nnc(-c3ccccc3)n2)n1CC,32.6%
Cc1ccc(-n2ncc3c2ncn2nc(-c4ccco4)nc32)c(C)c1,19.2%
COc1ccc(C(C)(C)C)cc1NC(=O)c1ccoc1C,-9.5%
C[C@@H](SCc1ccccc1)C(=O)O,-5.9%[5.75 µM]
COC(=O)c1cc(=O)n(Cc2ccc3c(c2)OCO3)c(=Nc2ccccc2)s1,12.3%
NC(=O)c1ccc(NS(=O)(=O)c2ccccc2F)cc1,4.5%
COCC(C)n1c(C)cc(C(=O)COC(=O)c2ccc(N3CCCC3=O)cc2)c1C (centres undefined),101.0%
CCOC(=O)c1c(C)n(C)c2ccc(O)c(CN3CCN(C)CC3)c12,24.8%
CC1CCCCN1C(=O)CSc1nnc(-c2cccnc2)n1C1CCCCC1 (centres undefined),56.0%
O=S(=O)(c1ccccc1)N1CCC2(CC1)CN(c1ncccn1)C2,4.0%
COc1ccc(Cc2nnc(SCC(=O)c3ccccc3)o2)cc1,27.4%
COc1ccc(C(=O)OCCNC(=O)c2c(Cl)nc3ccccn23)cc1,47.5%
C=C(C)Cc1c(C)nc(-c2ccccc2)[nH]c1=O,-1.1%
O=C(c1ccc(S(=O)(=O)N2CCCCCC2)cc1)N1CCN(c2ccccn2)CC1,81.3%
COCCN1Cc2cccc(C(=O)Nc3cccc(C)c3C)c2C1=O,18.5%
Cc1csc2nc(CNC(=O)c3cccc(C(F)(F)F)c3)cn12,5.4%
c1cn(CCCNc2ncnc3sc4c(c23)CCC4)cn1,10.4%
CCN(c1ccccc1)c1cc(C)nc2ncnn12,7.6%
CCC(=O)N(Cc1cc2cc(OC)ccc2[nH]c1=O)c1ccccc1C,21.2%
c1ccc(-c2ccccn2)nc1,3.7%
CCOC(=O)c1ccc(NC(=O)C2CC2)cc1,2.9%
CCn1nnnc1SCC(=O)c1cc(OC)ccc1OC,-1.1%
COc1cccc(Cn2c(=O)c(C)nc3cnc(N4CCNCC4)nc32)c1,29.8%
CC(C)NC(=O)C1CCN(C(=O)c2cc3sccc3n2Cc2ccc(F)cc2)CC1,116.7%
Cc1ccc(S(=O)(=O)Nc2ccc3c(c2)ncn3C(C)(C)C)cc1,8.1%
CC(=O)c1ccc(N2CCN(C(=O)C3(S(=O)(=O)c4ccc(Cl)cc4)CC3)CC2)cc1,85.0%
CN(C)CCN(Cc1ccccc1)S(=O)(=O)c1cccc2cccnc12,14.9%
COCCn1c(C)cc(C(=O)CSc2n[nH]c(N)n2)c1C,14.4%
N#Cc1ccc(CN2CCCC3(CCN(C(=O)c4cc(C(F)(F)F)cc(C(F)(F)F)c4)CC3)C2)cc1,50.2%
COC(=O)[C@@]1(Cc2ccccc2)[C@H]2c3cc(C(=O)N(C)C)n(Cc4cc(F)c(F)c(F)c4)c3C[C@H]2CN1C(=O)c1ccccc1,123.5%
COn1c(SCC(=O)N(C)C)nc2ccccc2c1=O,-2.9%
O=c1cc(-c2ccccc2)nc2nc(CCc3ccccc3)[nH]n12,-19.2%
NCC(=O)[C@@H](O)[C@H](O)[C@H](O)CO,-1.4%[5.75 µM]
CCN(CCNS(=O)(=O)c1ccc2c(c1)oc(=O)n2C)c1ccccc1,-5.2%
CC(=O)Nc1cc(NC(=O)CCCC(=O)O)ccc1Cl,1.6%
Cc1cc(N(C)C)cc(C)[n+]1[O-],-6.3%
COC(=O)c1c(NC(=O)CSc2nnnn2-c2ccc3c(c2)OCO3)sc(C)c1C,-18.8%
CC(NC(=O)c1ccco1)C(=O)OCc1cccc(Cl)c1 (centres undefined),12.8%
CNC(=O)c1cc(S(=O)(=O)N(C)C)ccc1Cl,-4.8%
NCCSc1nc(-c2ccccc2)c(-c2ccccc2)o1,5.8%[5.75 µM]
CC(C)CCOc1cccc(OCC(=O)N(C)C2CCS(=O)(=O)C2)c1 (centres undefined),81.6%
O=C(O)C1CCCCC1C(=O)NCCc1c[nH]c2ccccc12 (centres undefined),5.9%
COc1ccc(OC)c(NC(=O)C23CCC(C)(C(=O)C2)C3(C)C)c1 (centres undefined),19.9%
CCOC(=O)N1CCN(C(=O)C(NC(=O)c2ccc(CC)cc2)C(C)C)CC1 (centres undefined),76.9%
CCS(=O)(=O)N1CCC(C(=O)NCc2cccc(OC)c2)CC1,-10.9%
O=C(CC(O)(c1ccccc1)C(F)(F)C(F)F)c1cccs1 (centres undefined),-14.4%
CCn1c(SCC(=O)Nc2cccc(F)c2)nc2c(c1=O)SC(C)C2 (centres undefined),4.9%
N#Cc1ccccc1Cn1cc(C(=O)C2CC2)c2ccccc21,15.5%

# Sorted by SMILES length (descending): part of the list above.
SMILES,AmpC inh no det
CCOC(=O)N1CCN(C(=O)C(NC(=O)c2ccc(CC)cc2)C(C)C)CC1 (centres undefined),76.9%
COc1ccc(OC)c(NC(=O)C23CCC(C)(C(=O)C2)C3(C)C)c1 (centres undefined),19.9%
CC(C)CCOc1cccc(OCC(=O)N(C)C2CCS(=O)(=O)C2)c1 (centres undefined),81.6%
NCCSc1nc(-c2ccccc2)c(-c2ccccc2)o1,5.8%[5.75 µM]

# (cont.)
SMILES,AmpC inh no det
c1ccc(N(c2ccccc2)c2nc(N3CCOCC3)nc(N3CCOCC3)n2)cc1,-2.2%
CC(C)C[C@H](NC(=O)[C@@H]1O[C@H]1C(=O)O)C(=O)NCCCCN=C(N)N,2.4%
CCOC(=O)C1CCN(C(=O)COC(=O)c2ccc(Br)o2)CC1,7.6%
C=CCn1c(C)cc(C(=O)CSc2nnc(NCc3ccccc3)s2)c1C,-15.6%
COC(=O)c1cccc(CSc2nnc(C)s2)c1,-13.5%
CCOC(=O)c1c(C)noc1CP(=O)(c1ccccc1)c1ccccc1,17.9%
Cc1c(C(=O)N2CCOCC2)sc2nc(-c3ccccc3)cn12,13.0%
CCCCCCN(C(=O)CCCCCN1C(=O)NC(c2ccc(-c3ccccc3)cc2)C(C(=O)OCc2ccccc2)=C1C)C(C(=O)NCCCC)c1ccccc1 (centres undefined),13.6%
CC(C)OC(=O)c1cc2c(OC[C@@H](O)CNC(C)(C)C)cccc2[nH]1,10.6%
CC(C)c1cc(CN2CCN(CCC#N)CC2)cc(C(C)C)c1O,-9.9%
COc1cc([C@@H]2c3cc4c(cc3[C@@H](O[C@@H]3O[C@H]5CO[C@@H](C)O[C@@H]5[C@@H](O)[C@H]3O)[C@@H]3COC(=O)[C@@H]23)OCO4)cc(OC)c1O,31.7%&37.8%
O=P(O)(CCP(=O)(O)c1ccccc1)c1ccccc1,-0.5%[5.75 µM]
COc1ccc(C(=O)Nc2c3c(nn2-c2cccc(Cl)c2)CS(=O)C3)cc1 (centres undefined),36.7%

# Source: PubChem

# The list is partial. The share of hits here may be higher or lower than overall.
